B2AR ag: human beta-2 adrenergic receptor agonism by FAP. P07550. 340,000 tested, 0.43% active. Am2.2-beta2AR cells, FAP receptor internalization, flow cytometry; reference of the scale not given here. response, % (no concentration beside the values);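 active means response above a set limit, near 3 SD of response in nonfluorescent compounds, cut at about 42% in these data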;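 further: stock transfer was 100 nL into about 11 µL; a reference agonist was the positive control; negative values mostly stem from fluorescent compounds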
FGF22 binding: shifts melting point of recombinant human FGF22; Q9HCT0; recombinant FGF22 thermal shift, SYPRO orange fluorescence; percent of sucrose octasulfate shift, DMSO zero; calls only at 9.99 µM; 340,000 tested, 1.5% active; AID 651658;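 active means melting point raised past a set limit in the mean and every replicate; three in four hits are not shown here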
Target sequence (Q9HCT0 whole entry, looked up): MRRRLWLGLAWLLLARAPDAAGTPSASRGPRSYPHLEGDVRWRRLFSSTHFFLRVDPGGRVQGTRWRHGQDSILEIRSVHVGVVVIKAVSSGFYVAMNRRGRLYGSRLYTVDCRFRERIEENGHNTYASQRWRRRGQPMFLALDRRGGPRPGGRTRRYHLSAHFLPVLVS
rRNA inh HTS: selective bacterial rRNA inhibition in E. coli; E. coli WT GFP vs humanized-ribosome RFP mutants, fluorescence, 24 h; active compounds read low; DMSO median 0, no signal -100; GFP signal change (wild-type ribosome), % (concentration not given with the values); 350,000 tested, 1.6% active;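 active means significant combined selectivity score with lowered wild-type GFP, culture density cut under 30%, mutant RFP and density less affected; inactive means any of these conditions unmet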; further: one replicate is shown; some compounds called inactive have numbers as strong as hits
ALR inh: inhibitors of human sulfhydryl oxidase ALR; P55789; purified ALR, DTT oxidation, H2O2 HRP-luminol luminescence; inhibition, % (concentration not given with the values); 290,000 tested, 3.8% active; AID 485317;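 active means mean and each replicate at 75% or more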;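 further: stock transfer was 7.5 nL into about 7.5 µL; 0% = neutral wells and 100% = wells with inactivated enzyme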
Target sequence (P55789 whole entry, looked up): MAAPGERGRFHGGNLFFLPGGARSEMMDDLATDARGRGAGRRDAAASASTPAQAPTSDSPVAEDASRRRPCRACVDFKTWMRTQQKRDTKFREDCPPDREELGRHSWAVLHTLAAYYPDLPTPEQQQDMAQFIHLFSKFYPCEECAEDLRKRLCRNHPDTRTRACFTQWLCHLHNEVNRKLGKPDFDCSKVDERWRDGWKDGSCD
UCH37 DUB inh: blocks the human deubiquitinase UCH37 | inhibition, % (concentration not given with the values) | 330,000 tested, 0.33% active | purified proteasome/UCH37, Ub-AMC cleavage fluorescence | Q9Y5K5;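 active means mean of two replicates above 20%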;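 further: 0% = compound-free wells with enzyme and 100% = wells lacking proteasome; stock transfer was 100 nL into about 20 µL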
Target sequence (Q9Y5K5 whole entry, looked up): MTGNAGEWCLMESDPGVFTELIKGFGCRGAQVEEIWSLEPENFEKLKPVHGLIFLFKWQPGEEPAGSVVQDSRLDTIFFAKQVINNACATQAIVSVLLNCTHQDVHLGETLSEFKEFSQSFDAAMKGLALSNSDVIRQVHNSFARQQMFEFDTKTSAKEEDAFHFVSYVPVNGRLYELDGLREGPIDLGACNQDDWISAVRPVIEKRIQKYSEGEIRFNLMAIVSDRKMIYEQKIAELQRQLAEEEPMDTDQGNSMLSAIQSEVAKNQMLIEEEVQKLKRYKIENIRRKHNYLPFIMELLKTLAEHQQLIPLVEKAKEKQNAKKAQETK
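Schedule: 30 min plus 25 min, room temperature / Material: human UCH37 within purified proteasomes / Technique: AMC fluorescence intensity at 355/460 nm / Buffer or medium: pH 7.4 Tris-HCl (50 mM) with ovalbumin, ATP-MgCl2, DTT / Controls: wells without proteasome as full block, compound-free enzyme plus substrate as uninhibited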
Ecoli growth: blocks Escherichia coli growth | OD600, 23 h; active compounds read low | OD600 absorbance (no concentration beside the values) | 330,000 tested, 0.21% active | AID 1053175;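 active means OD600 absorbance below the run mean of sample wells minus 3.6 SD, in any replicate, cut at about 0.56 in these data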;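 further: stock transfer was 300 nL into about 60 µL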
HNF4A DNA FP: change in binding of human HNF4 alpha to DNA | P41235 | HNF4a-FITC DNA binding, fluorescence polarization, 1 h | activity change, % at 10 µM | 360,000 tested, 0.3% active; in the data active means activity change above about 30%, passing the limit was not always enough;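 further: controls were the assay level and a saturating level of protein; the project sought stronger binding though the title names inhibitors; some compounds called inactive have numbers as strong as hits; positive values seem to mean higher polarization but the record does not say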
rRNA inh HTS OD600: recorded beside rRNA inh HTS, whose call it bears; OD600 change, %; measured here: OD600 growth;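 optical density of the mix in the first replicate; 0 = DMSO median and -100 = no signal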
rRNA inh HTS RFP: further read-out of rRNA inh HTS, marked with its call; RFP signal change, %; measured here: RFP humanized mutant strains;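 first replicate; 0 = DMSO median and -100 = no signal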
* hit, by the source's call; i = inactive; · = no result given. The list is partial; rates above refer to the full screens.

SMILES	B2AR ag	FGF22 binding	rRNA inh HTS	rRNA inh HTS OD600	rRNA inh HTS RFP	ALR inh	UCH37 DUB inh	Ecoli growth	HNF4A DNA FP
Cc1ccc(-n2c(=S)[nH]c3nc4c(cc3c2=O)COC(C)(C)C4)cc1	9	·	·	·	·	-2	1.6	0.75	1.8
Cc1cc(C)c2cc(C(=O)N3CCc4ccccc4C3)[nH]c2c1	-1	i	6	5	6.6	-4	1.7	0.65	0.3
CO/N=C(\Cn1ncc(N2CCCC2)c(Cl)c1=O)c1ccc(Cl)cc1	-11	·	·	·	·	-3	·	·	-1.5
CCOC(=O)c1cc2sccc2n1Cc1ccccc1	7	·	·	·	·	46	1.3	0.63	0.1
O=C(CCc1nc2cccnc2n1Cc1ccccc1)N1CCOCC1	-6	·	·	·	·	-15	2.9	0.72	-1.9
O=C(NCCC1=CCCCC1)c1c(O)nc2ccccn2c1=O	0	i	-1	0	-4.0	-8	-15	0.67	-3.1
CC(=O)N1CCN(S(=O)(=O)c2cccc(C(=O)NC3CCCc4ccccc43)c2)CC1 (stereo not drawn)	-2	·	·	·	·	-2	1.6	0.74	-1.2
CC(=O)Cc1nsc(Nc2ccc(C)cc2)n1	7	i	10	1	0.9	·	4.3	0.7	0.6
COC(=O)c1nn(-c2ccccc2)c(Sc2ccccc2)c1/C=N/O	12	·	·	·	·	12	·	·	0.8
O=C(NCc1nnnn1-c1ccc(F)c(F)c1)c1ccc2ccccc2c1	7	i	-15	-19	4.2	10	0.5	0.6	0.0
CCS(=O)(=O)N1Cc2ccccc2CC1C(=O)Nc1nnc(SCc2ccc(F)cc2)s1 (stereo not drawn)	-7	·	·	·	·	8	-1.4	0.71	-0.3
CCC(=O)N1CCc2cc(S(=O)(=O)NCCC(=O)N3CCN(Cc4ccccc4)CC3)ccc21	-18	·	·	·	·	·	2.6	0.65	7.3
CCCN(CCC)CCCNc1ccc(C(=O)Nc2cccc(OC)c2)cc1[N+](=O)[O-]	12	i	-10	-2	5.2	-34	6.0	0.68	5.4
CCOc1ccc(NC(=S)Nc2ccccc2C2CC2)cc1	-8	i	-6	1	-2.7	-6	-0.7	0.65	-2.0
Cc1ccc(S(=O)(=O)NCCc2cc3ccc(C)c(C)c3[nH]c2=O)cc1	-4	i	-2	-10	2.7	·	-5.2	0.69	2.1
CC(=O)NCCn1c(SCc2ccccc2F)nc2ccccc2c1=O	-14	·	-14	-3	-5.0	-5	3.4	0.72	0.2
O=C(CCc1ccc(S(=O)(=O)N2CCOCC2)cc1)Nc1ccc2ccccc2c1	-2	·	·	·	·	-71	1.5	0.71	2.1
COc1ccc2nc(/C(C#N)=C\c3ccc(Oc4ccc([N+](=O)[O-])cn4)cc3)[nH]c2c1	24	·	·	·	·	-1	2.2	0.65	1.6
O=C1c2ccccc2-c2c1nc1c([n+]2[O-])CCCC1	-7	·	·	·	·	-14	2.6	0.72	0.0
COc1cc(/C=N\n2nnnc2N)ccc1OCc1ccc(F)cc1	3	·	·	·	·	-3	·	·	-2.2
C=CCN(C(=O)CNC(=O)c1ccco1)C(C(=O)NC1CCCC1)c1cccs1 (stereo not drawn)	-8	i	9	7	0.8	-1	2.2	0.69	-1.0
Cc1cccc(CCNC(=O)C2CCN(S(=O)(=O)c3cccc4cccnc34)CC2)c1	-1	i	-13	-14	1.8	3	-0.2	0.66	-2.9
CCCc1nc2ccc(NC(=O)NCCC(=O)OCC)cc2c(=O)n1Cc1cccc(Cl)c1	12	·	·	·	·	-1	-4.3	0.69	4.4
COc1ccc(/C=N/NC(=O)c2ccc(N(C)S(=O)(=O)c3ccccc3)cc2)c(OC)c1	2	i	3	2	3.0	2	·	·	-0.6
CC1CCCC(C)N1CCCNC(=O)c1cc2c(=O)n(C)c3ccccc3c2n1C (stereo not drawn)	3	i	1	12	7.9	-10	-3.6	0.76	1.7
CCn1ncc(/C=N\NC(=O)COc2ccccc2)c1C	2	·	·	·	·	96*	·	·	1.8
Cc1cccnc1NC(=O)CCc1c[nH]c2ccccc12	11	i	0	3	-0.6	23	3.1	0.7	0.3
CN(C)C(=S)SCC(=O)NCc1ccc(F)cc1	0	i	1	3	1.7	12	3.1	0.68	-1.3
N#CC1=C(SCC(N)=O)NC2=C(C(=O)c3ccccc32)C1c1ccc(Cl)cc1 (stereo not drawn)	-6	·	·	·	·	33	8.8	0.64	-0.3
CC(C)=CCN1CCN(Cc2c[nH]c3ccccc23)CC1CCO (stereo not drawn)	3	i	-1	-3	-5.5	2	4.2	0.62	1.4
COc1ccc(CCCNC(=O)C2Cc3c(-c4ccc(NC(C)=O)cc4)ccnc3O2)cc1 (stereo not drawn)	·	i	-3	-28	1.2	·	·	·	2.9
Cc1ccnc(NC(=O)c2ccoc2C)c1	-24	·	·	·	·	-10	0.1	·	-5.5
Nc1ccc(C(=O)OC2CCOC2=O)cc1[N+](=O)[O-] (stereo not drawn)	5	·	·	·	·	3	4.2	0.66	-1.1
CCOC(=O)N1CCN(C(=O)C2CCC(CNS(=O)(=O)c3ccccc3)CC2)CC1 (stereo not drawn)	-1	·	·	·	·	0	-2.5	0.7	-8.4
COc1ccc(NC(=O)CSCCc2ccccn2)cc1OC	0	i	-5	5	-7.7	-16	0.3	0.67	0.1
CCN1C(=O)N[C@@H](c2cccc(F)c2)C(C(C)=O)=C1C	3	i	0	2	5.9	-3	3.8	·	-2.8
Nc1ccc(-c2cc3ccccc3c(=O)o2)cc1	-11	i	17	26	-0.9	41	-17	0.69	3.1
O=c1cc(CN2CCCCCC2)nc2sccn12	-9	i	-3	2	-0.5	-9	·	·	-2.2
O=C(NCCc1cccs1)C1CC(c2ccc([N+](=O)[O-])cc2)=NO1 (stereo not drawn)	-2	i	16	4	-6.6	-7	5.6	0.69	2.3
C#CCN(C[C@@H]1[C@@H](OC(=O)NCC2CCCCC2)[C@@H](OC(=O)NCC2CCCCC2)Cn2c(=O)ccc(=O)n21)S(=O)(=O)c1ccc(C)cc1	·	i	3	8	-4.0	·	·	·	3.0
Cc1nn(C)c(Oc2cccc(Cl)c2)c1C=O	2	·	·	·	·	-1	1.8	0.62	-1.3
Cc1nc(SC(C)C(=O)NCC2CCCO2)c2cc(-c3ccccc3)sc2n1 (stereo not drawn)	5	i	10	8	3.4	-5	-1.6	0.68	1.1
COc1ccc(C(=O)NCc2nnc(SCC(=O)Nc3cc(C)cc(C)c3)o2)cc1OC	-12	·	·	·	·	4	0.6	0.73	2.6
CCc1c(C)nc(N2CCN(c3ccc(Cl)cc3)CC2)[nH]c1=O	12	i	0	9	4.1	·	1.7	0.7	-2.2
COc1ccc(-c2[nH]ncc2CN(C)Cc2ccccn2)c(OC)c1	4	i	6	8	-2.6	5	5.0	0.67	5.4
CCN1C[C@@H]2[C@@H]3C(=O)N(C)C(=O)[C@@H]3[C@](CC)(C1=O)N2C(=O)c1ccc(F)cc1	1	i	10	23	4.6	·	3.7	·	2.1
CN(C)S(=O)(=O)c1ccc(N2CCCC2)c(C(=O)N2CCC(C(N)=O)CC2)c1	12	i	14	17	0.6	-2	1.3	0.69	-1.6
COc1ccc2nc(NC(=O)c3ccc4ncsc4c3)sc2c1	8	·	·	·	·	0	-82	0.74	-2.0
Cc1ccccc1S(=O)(=O)Nc1ncnc2sccc12	11	i	3	-5	-1.0	·	0.8	0.7	0.4
Cc1ccc2nc(NC(=O)C3CC(=O)N(Cc4ccco4)C3)sc2c1 (stereo not drawn)	-1	i	-8	-1	-0.3	0	1.2	0.7	-0.5
CCN(CC)CCNC(=O)CNC(=O)c1nn(-c2ccc(OC)c(OC)c2)c(=O)c2ccccc12	-5	i	9	6	-8.0	-5	3.7	0.66	5.3
Cc1ccc(S(=O)(=O)CCSc2nc(C)cc(C(F)(F)F)c2C#N)cc1	-119	·	·	·	·	-4	-2.2	0.74	37
CC(C)(C)[C@H]1COC(=O)CCC/C=C/C[C@H](CC(=O)NCCO)C(=O)N1	0	i	0	-4	2.4	1	1.3	·	-3.1
CC(C)CCN1CCN(Cc2cccc3nonc23)CC1CCO (stereo not drawn)	2	i	31	13	4.6	-9	1.3	0.68	1.1
N=c1n(Cc2ccccc2)c2ccccc2n1CC(O)COc1ccccc1 (stereo not drawn)	25	·	·	·	·	·	3.7	0.69	13
Cc1cc(Cl)ccc1OCC(=O)NNC(=O)CCOc1ccccc1	-3	i	2	-18	5.8	·	0.3	0.64	4.9
CC(C)(C)OC(=O)N1CCC(C(=O)Nc2cccc(C(=O)NCc3ccccc3)c2)CC1	3	i	-25	-25	-3.3	·	·	·	-3.8
O=C(NCCC(F)(F)F)C1Cc2c(-c3cccc(F)c3)ccnc2O1 (stereo not drawn)	·	i	-3	-8	-0.8	·	·	·	-5.8
COc1ccc(C2CC(=O)Oc3c2c(=O)n(C)c2ccccc32)c(OC)c1OC (stereo not drawn)	3	i	6	5	-1.2	·	-11	0.66	2.4
CCn1c(SCC(=O)NC2CCCC2)nnc1-c1cccnc1	-1	i	7	10	1.2	-1	0.2	0.63	-1.9

Laid out differently: entries from further up
canonical_smiles | B2AR ag | FGF22 binding | rRNA inh HTS | rRNA inh HTS OD600 | rRNA inh HTS RFP | ALR inh | UCH37 DUB inh | Ecoli growth | HNF4A DNA FP
Cc1ccc2nc(NC(=O)C3CC(=O)N(Cc4ccco4)C3)sc2c1 (stereo not drawn) | -1 | i | -8 | -1 | -0.3 | 0 | 1.2 | 0.7 | -0.5
CCN(CC)CCNC(=O)CNC(=O)c1nn(-c2ccc(OC)c(OC)c2)c(=O)c2ccccc12 | -5 | i | 9 | 6 | -8.0 | -5 | 3.7 | 0.66 | 5.3
Cc1ccc(S(=O)(=O)CCSc2nc(C)cc(C(F)(F)F)c2C#N)cc1 | -119 | · | · | · | · | -4 | -2.2 | 0.74 | 37
CC(C)(C)[C@H]1COC(=O)CCC/C=C/C[C@H](CC(=O)NCCO)C(=O)N1 | 0 | i | 0 | -4 | 2.4 | 1 | 1.3 | · | -3.1
CC(C)CCN1CCN(Cc2cccc3nonc23)CC1CCO (stereo not drawn) | 2 | i | 31 | 13 | 4.6 | -9 | 1.3 | 0.68 | 1.1
N=c1n(Cc2ccccc2)c2ccccc2n1CC(O)COc1ccccc1 (stereo not drawn) | 25 | · | · | · | · | · | 3.7 | 0.69 | 13
Cc1cc(Cl)ccc1OCC(=O)NNC(=O)CCOc1ccccc1 | -3 | i | 2 | -18 | 5.8 | · | 0.3 | 0.64 | 4.9

More results.
SMILES	B2AR ag	FGF22 binding	rRNA inh HTS	rRNA inh HTS OD600	rRNA inh HTS RFP	ALR inh	UCH37 DUB inh	Ecoli growth	HNF4A DNA FP
Fc1c(F)c(F)c(N=Cc2ccc3ncccc3c2)c(F)c1F	-2	i	10	8	0.5	-4	3.0	0.69	1.1
CC1=C(C(=O)Nc2ccccc2)C(c2cccnc2)n2ncnc2N1 (stereo not drawn)	5	·	·	·	·	9	2.0	0.66	-1.1
NC(=O)CCC(NC(=O)c1ccc(Cl)cc1)C(=O)O (stereo not drawn)	1	i	23	23	0.6	5	1.2	0.63	-2.1
O=C(C[n+]1ccc(/C=N/O)cc1)N1CCCCC1	0	i	6	7	-0.1	-4	·	·	-3.0

Screening data deposited in PubChem by several laboratories.
